# Source: PubChem (Fisher Drug Discovery Resource Center)
# NPYLR7 agonist = activates Aedes aegypti NPYLR7 receptor | hit rate 0.15% among 270,000 | activation, % at 10 µM | AID 1259423 | HEK293T NPYLR7/Galpha15, GCaMP6s calcium fluorescence; in the data active = activation above about 40%;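 note: 0% = vehicle and 100% = reference agonist at the receptor; some compounds past the cut are filed as inactive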
# NPYLR7 agonist max-min = recorded beside NPYLR7 agonist, whose call it bears; activation, %; measured here: Max-Min RFU normalised activation; some inactives read as strong as hits;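 span of the calcium signal over five minutes; 0% = vehicle and 100% = native peptide agonist; compound fluorescence can raise it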
# Starred values were filed as active, the others as inactive; & = joins results of further samples. This is a subset; count on the stated rates, not on these rows.
SMILES,NPYLR7 agonist,NPYLR7 agonist max-min
Cc1ccsc1C1C(=C(O)c2ccc(F)cc2)C(=O)C(=O)N1CCCN1CCOCC1 (stereo not drawn),0.9,0.4
CCN(CC)C(=O)Oc1ccc2c(ccn2Cc2cc(C(F)(F)F)ccc2C(F)(F)F)c1-c1ccc(C#N)cc1,26.0,25.8
CCN(CC)C(CNC(=O)Cn1nc(C)cc1C)Cc1ccccc1 (stereo not drawn),3.7,0.4
COc1ccc2cc(CNc3ccccc3)c(=O)n(CC(=O)NCCc3ccc(Cl)cc3)c2c1,1.3,6.4
CN(CC(=O)Nc1cccc(F)c1)CC(=O)NC1CCCc2ccccc21 (stereo not drawn),5.6,3.2
Cc1ncsc1CNc1ccc(C(=O)N2CCC(C)CC2)cn1,6.7,7.6
COc1ccc(NS(=O)(=O)c2ccc(S(C)(=O)=O)cc2)c(C(=O)NCc2ccccc2)c1,4.2,8.3
CC1CCCC(C)N1/N=C\c1ccc(/C=N\N2C(C)CCCC2C)cc1 (stereo not drawn),0.9,-1.3
CCC(NC(=O)C1CCN(C(C)=O)CC1)c1ccnn1C (stereo not drawn),3.3,0.6
Cc1nc(C)c(CC(=O)N(C)C(C)c2ccc(F)cc2)c(=O)[nH]1 (stereo not drawn),-14.4,-14.0
CC(C)c1cc(CN(C)C(=O)CC2C(=O)NCCN2C(C)C)no1 (stereo not drawn),0.2,-9.4
CCc1ocnc1C(=O)NC1CCCc2nc(-c3cccnc3)ncc21 (stereo not drawn),22.5,16.0
O=C1CN(C(=O)OCc2ccccc2)C(c2ccccc2)c2cc(Br)ccc2N1 (stereo not drawn),-4.0,-5.4
COc1ccc(Br)c(CN)c1,-1.2,-1.7
Cc1oc(-c2ccccc2Cl)nc1CN(C)C(C)c1ccon1 (stereo not drawn),-6.9,-13.2
COc1ccc(-c2ccc(=O)n(CCNS(=O)(=O)c3ccc(C(F)(F)F)cc3)n2)cc1,6.4,5.3
Cn1ccnc1SCC(=O)Nc1sc2c(c1C(N)=O)CCC2,1.0,-1.3
C/C(=C\c1cc(Cl)ccc1O)CN(C)Cc1noc(C)n1,-14.7,-14.4
O=S(=O)(Nc1ccc(N2CCOCC2)cc1)c1ccc(F)c(F)c1,-2.0,-4.2
Oc1c(C=Nc2ccc(I)cc2)sc2ccccc12,7.7,5.7
O=C(CCn1cncn1)N1CCC(Cc2nncn2-c2ccccc2)CC1,3.2,2.7
CCOCCSc1nnc(-c2cn(CC)nc2OCC)n1C,10.2,9.6
CC(C)(C)C(=O)NCCc1nc2ccccc2n1Cc1ccccc1Cl,-1.3,4.0
COc1cccc(CN(Cc2nc(C(=O)NCc3ccco3)co2)C(C)c2ccccc2)c1 (stereo not drawn),14.1,10.2
CCOc1cc(C=C2C(=O)NC(=S)NC2=O)ccc1OCCOc1ccccc1OC,-5.2,-9.7
CCCOC(=O)N1CCC(N2CCCC(C(=O)NCc3ccccn3)C2)CC1 (stereo not drawn),13.7,4.9
O=C(NCCNC1CCC2(CCNCC2)CC1)c1ccccc1Cl,21.1,13.1
O=[N+]([O-])c1ncn(Cc2ccc3c(c2)OCO3)n1,0.3,-5.4
N#CC12Oc3ccccc3C1C1(C#N)Oc3ccccc3C21 (stereo not drawn),11.8,5.4
CSc1ccc(CN2CCC2(C)C(=O)NCc2cccc(C(F)(F)F)c2)cc1 (stereo not drawn),3.6,-0.4
CC(C)CN(Cc1ccc(Br)cc1)Cc1cccn1Cc1ccc(C(F)(F)F)cc1,4.6,19.8
CCC(c1nc2ccccc2c(=O)n1-c1ccc(Br)cc1)N(C)C(=O)c1cccc(C(F)(F)F)c1 (stereo not drawn),13.9,7.7
Cc1ccc(C2(O)CCN(C(=O)CC3C(=O)Nc4ccc(C)cc43)CC2)nc1 (stereo not drawn),3.6,1.2
CCOc1ccc(-n2c(C(C)N(Cc3ccccc3)C(=O)c3ccccc3C)nc3ccccc3c2=O)cc1 (stereo not drawn),12.6,19.2
CNC(=O)Cc1noc(-c2ccc(-n3ccnc3)cc2)n1,11.1,7.7
O=C(c1cc2cc(F)ccc2[nH]1)N1CCC(CO)(CCOc2ccccc2)CC1,1.2,1.1
Cc1cc(C)c(C(=O)OCC(=O)NCc2ccccc2Cl)c(C)c1,2.6,0.9
Cc1cccc(NC(=O)COc2ccc(C#N)cc2)n1,-2.4,-3.4
Cc1c(C(=O)NCCc2ccc3c(c2)OCO3)cnn1-c1ccccc1F,-1.9,-2.3
CC(O)Cn1cc(C#N)c(=O)[nH]c1=O (stereo not drawn),-1.5,-1.9
CCOC(=O)c1ccc(NC(=O)N(Cc2ccc(OS(=O)(=O)CC)cc2)C(C)C)cc1,-11.3,-1.4
COCc1c(Br)c(C)nc(OCC(=O)N/N=C\c2cc(I)c(OC)c(OC)c2)c1C#N,4.3,7.2
COc1ccc(N2CCN(C(=O)c3cc4ccsc4n3Cc3cccc(C)c3)CC2)cc1,-2.6,3.4
COc1cc(C=C2N=C(c3ccccc3Cl)OC2=O)cc(Cl)c1OCC(N)=O,-0.6,24.1
CC(=O)N1CCN(c2ccc(Nc3cccc(C)n3)nn2)CC1,15.3,5.7
Cc1ccc(-c2cc(C(=O)NCCc3ccccc3)c3c(C)nn(C4CCS(=O)(=O)C4)c3n2)cc1 (stereo not drawn),1.5,7.7
CC(C)C(=O)N1CCC1(C)C(=O)Nc1cccc(Oc2ccccc2)c1 (stereo not drawn),-1.2,-2.2
O=C(CN1CCCCCC1=O)N1CCN(c2ncc(C(F)(F)F)cc2Cl)CC1,20.7,7.5
CC(C)c1ccccc1OC1CC2CCC(C1)N2C(=O)c1ccc(CSCc2ccc(Cl)c(Cl)c2)cc1 (stereo not drawn),15.9,5.4
O=S(=O)(NCc1ccc2c(c1)OCO2)c1cccc(F)c1,-2.8,-3.3
O=S(=O)(Cc1ccccc1)N1CCC(On2nnc3ccccc32)CC1,-2.0,-1.6
N#CCCCSc1nc2ccccc2[nH]1,1.0,-1.6
CC(C)(C)C(=O)CSc1nnc(Cn2cncn2)o1,-6.0,-13.6
COCCCN(CC(=O)N1CCc2sccc2C1c1ccc(Cl)cc1)C(=O)C(C)(C)CCl (stereo not drawn),0.1,11.0
COc1cccc(C2C(=C(O)c3ccc(Cl)cc3)C(=O)C(=O)N2CCN2CCOCC2)c1 (stereo not drawn),-1.3,-3.8
O=C(NCc1coc(-c2ccccc2)n1)C1CC2(CCNCC2)CN1 (stereo not drawn),7.7,3.2
CC(CC(N)=O)NC(=O)CCc1ccccc1 (stereo not drawn),0.8,-0.1
O=C(NC1CC1)c1cc2n(n1)CCN(Cc1ccnn1-c1ccccc1)C2,18.9,2.2
O=C(O)c1ccc(-n2nnnc2SC2CCc3ccccc3C2=O)cc1 (stereo not drawn),7.4,2.0
COc1ccc(C2=N/C(=C\C=C\c3ccccc3OC)C(=O)O2)c(Cl)c1,-3.7,-5.7
# (listing goes on)
SMILES,NPYLR7 agonist,NPYLR7 agonist max-min
N#CC1C(=N)SC(=N)C(C#N)C1c1ccnc2ccccc12 (stereo not drawn),0.9,-2.2
Cc1cnc(CNC(=O)C2(C)CCCN2CC(C)C)cn1 (stereo not drawn),8.1,3.8
C[C@H](C(=O)NCc1cccnc1)N1Cc2ccc(-c3ccnn3C)nc2C1=O,3.6,-0.7
O=c1[nH]cnc2c1ncn2[C@H]1CC[C@@H](CO)O1,-9.9&-12.3&-0.9,-18.0&-18.3&-3.5
Oc1[nH]c2ccccc2c1N=Nc1ccc(Cl)c(Cl)c1,-0.3,-6.8
Nc1cc(-c2cccc(C(F)(F)F)c2)nn1-c1ccc(C(=O)NCCc2ccccc2)cc1,-6.3,-10.1
COCc1ncc(CN2CCC3(CCCN(C(=O)CC4CCCCC4)C3)C2)cn1 (stereo not drawn),11.8,12.4
CCCCN(C(C)=O)c1c(CC)nc2ccc(C(=O)NCc3ccccc3OC)cn12,-3.2,-6.5
CC1(c2cc(F)ccc2F)NC(=O)N(Cc2c(Cl)cccc2Cl)C1=O (stereo not drawn),5.2,4.8
COCCCNC(=O)c1cc2c(s1)CS(=O)(=O)C2,5.8,6.8
O=C([C@@H]1CCCN1C(=O)c1cccs1)N1CCN(S(=O)(=O)c2cccs2)CC1,3.3,2.3
O=C(C(Cl)Cl)N1CCN(c2nc3nccc(-c4ccc(N5CCOCC5)cc4)n3n2)CC1,3.0,-1.0
Cc1[nH]c2ccccc2c1CC(=O)NCc1nnc(-c2ccccc2)o1,31.9,22.2
CC(SCC(=O)NC12CC3CC(CC(C3)C1)C2)C(=O)O (stereo not drawn),-2.7,-7.2
CCOC(=O)C1=C(C)NC2=C(C(=O)CCC2)C1c1ccccc1C(F)(F)F (stereo not drawn),-4.7,-8.0
COc1ncccc1C(=O)N1CCC(O)(c2ccc3nc(C)ccc3c2)CC1,8.7,6.8
CC(c1ccccc1)N(Cc1cc(Cl)ccc1OCc1nc(CO)cs1)C(=O)C1CCCC1 (stereo not drawn),-5.4,-0.7
COCCN(CC(=O)Nc1nc(CC(=O)NCCCN2CCCCC2C)cs1)C(=O)c1ccc(Cl)cc1 (stereo not drawn),5.0,14.0
CCNC(=O)N1CCN(S(=O)(=O)c2cccc(C)c2)CC1,0.8,-3.1
Cc1ccc(C)c(CC(=O)N2CCC(n3cnc4cc(C(F)(F)F)ccc43)CC2)c1,1.4,0.8
Cc1sc(NC(=O)c2ccco2)c(C(c2cccnc2)N2CCN(c3ccccc3F)CC2)c1C (stereo not drawn),6.7,8.5
O=C(CCCCn1c(=O)[nH]c2ccsc2c1=O)NCC1CCCO1 (stereo not drawn),3.2,1.9
O=C(NCc1ccc(Cl)cc1)C1CCCc2[nH]ncc21 (stereo not drawn),6.8,5.2
Cc1ccc(NC(=O)C(C)N(C)Cc2nnc3ccccn23)c(Br)c1 (stereo not drawn),1.7,-0.4
COC(=O)[C@@H]1C[C@@H](O)CN1C(=O)c1ccc2oc(C)cc2c1,12.8,0.6
Cc1ccc(C(=O)NCCNc2nc(C)nc3c2c(C)nn3-c2ccccc2C)cc1,6.4,4.5
C=CCN=c1scc(C)n1N=Cc1ccc(O)c(O)c1,-8.4,-13.5
CC(=O)C(Sc1ncnc2c1nnn2-c1ccc(F)cc1)C(=O)N(C)C (stereo not drawn),2.4,20.9
O=C(CCn1cccn1)Nc1ccc(NC(=O)C2CC2)cc1,-3.7,-4.8
O=C(c1ccccc1C(F)(F)F)N1CCc2ccccc2C1c1ccc(F)cc1 (stereo not drawn),5.1,1.5
Cc1cccc(C)c1NC(=O)c1cccn(OCc2ccccc2)c1=O,13.2,11.6
CNC(=O)COc1ccccc1CNCC1(N2CCCCC2)CCCCC1,-3.4,-3.7
Cc1ccc(CCC(=O)NC2(C)CCS(=O)(=O)C2)cc1 (stereo not drawn),7.3,6.5
Cc1ccccc1COC(=O)c1nnn(-c2ccccc2)c1C,2.1,-4.0
Cc1nn(CC(C)NC2CCN(C(=O)c3ccco3)CC2)c(C)c1Cl (stereo not drawn),-3.9,-7.6
C=CCn1c(C(C)NC(=O)CC)nc2ccccc21 (stereo not drawn),-4.9,-6.9
COc1ccc(Cl)cc1C(=O)N1CCC(C(=O)NC(C)Cn2ccnc2)CC1 (stereo not drawn),8.5,6.4
COC(=O)c1cc(CNC(=O)Cc2c(F)cccc2Cl)cc(NC(=O)c2ccco2)c1,24.0,16.5
CN(C)CCN(Cc1cc(NC(=O)c2cccs2)ccc1N(C)C)C(=O)c1ccco1,4.3,11.2
Cn1nnnc1C(Br)CC(Br)(Br)Br (stereo not drawn),-0.1,20.7
CC(=O)Nc1ccc(CN2C(=O)C(C)(C)ON=C2c2ccc(F)cc2)cc1,8.1,7.8
Cc1ccccc1CN1C(=O)CON=C1c1ccc(N(C)C)cc1,-0.9,-2.7
N#Cc1cccc(N/N=C2\CCn3cccc32)c1,-1.4,-5.4
CC(C)SC(NC(=O)OCc1ccccc1)C(=O)NCCc1ccc(S(N)(=O)=O)cc1 (stereo not drawn),-0.9,-9.5
Cc1cc(Cl)ccc1OCC(O)CN1CCN(c2ccccc2)CC1 (stereo not drawn),-2.1,-2.8
Cc1ccc(OCC(=O)N=Nc2c(O)[nH]c3ccccc23)cc1,-10.9,-15.9
Cc1ccc(CN(C)C(=O)c2cccc(-c3ncc[nH]3)c2)o1,0.2,-37.6

# As a short view, 16 of the compounds above.
SMILES,NPYLR7 agonist,NPYLR7 agonist max-min
Cc1cccc(C)c1NC(=O)c1cccn(OCc2ccccc2)c1=O,13.2,11.6
CNC(=O)COc1ccccc1CNCC1(N2CCCCC2)CCCCC1,-3.4,-3.7
Cc1ccc(CCC(=O)NC2(C)CCS(=O)(=O)C2)cc1 (stereo not drawn),7.3,6.5
Cc1ccccc1COC(=O)c1nnn(-c2ccccc2)c1C,2.1,-4.0
Cc1nn(CC(C)NC2CCN(C(=O)c3ccco3)CC2)c(C)c1Cl (stereo not drawn),-3.9,-7.6
C=CCn1c(C(C)NC(=O)CC)nc2ccccc21 (stereo not drawn),-4.9,-6.9
COc1ccc(Cl)cc1C(=O)N1CCC(C(=O)NC(C)Cn2ccnc2)CC1 (stereo not drawn),8.5,6.4
COC(=O)c1cc(CNC(=O)Cc2c(F)cccc2Cl)cc(NC(=O)c2ccco2)c1,24.0,16.5
CN(C)CCN(Cc1cc(NC(=O)c2cccs2)ccc1N(C)C)C(=O)c1ccco1,4.3,11.2
Cn1nnnc1C(Br)CC(Br)(Br)Br (stereo not drawn),-0.1,20.7
CC(=O)Nc1ccc(CN2C(=O)C(C)(C)ON=C2c2ccc(F)cc2)cc1,8.1,7.8
Cc1ccccc1CN1C(=O)CON=C1c1ccc(N(C)C)cc1,-0.9,-2.7
N#Cc1cccc(N/N=C2\CCn3cccc32)c1,-1.4,-5.4
CC(C)SC(NC(=O)OCc1ccccc1)C(=O)NCCc1ccc(S(N)(=O)=O)cc1 (stereo not drawn),-0.9,-9.5
Cc1cc(Cl)ccc1OCC(O)CN1CCN(c2ccccc2)CC1 (stereo not drawn),-2.1,-2.8
Cc1ccc(OCC(=O)N=Nc2c(O)[nH]c3ccccc23)cc1,-10.9,-15.9
